Vaccinia Venus = inhibitors of vaccinia virus (Venus reporter). Vaccinia virus Venus reporter expression, fluorescence. Potency, µM (titrated, usually from 36.5 µM), for inactives: at the highest dose activity change, negative = inhibition, most hits filed as inhibitors. actives 0.46% (n = 330,000). AID 720580; active means well fitted inhibition curve with a large enough effect; inconclusive means small, poorly fitted or top-dose-only effect; inactive means no such curve, though single readings can be large or run the other way; tested in A549 cells; further: nearly all actives have a fitted effect of over 30% in size; inactives centre near -10
Vaccinia mCherry = vaccinia inhibition (mCherry reporter); Vaccinia virus mCherry reporter infection, fluorescence; about a quarter of the inactives have no number; AID 720579; actives 0.63% (n = 310,000); Potency, µM (series often up to 36.5 µM), inactives show at the highest dose activity change, negative = inhibition, actives largely listed as inhibitors; active = well fitted inhibition curve with a large enough effect; inconclusive = small, poorly fitted or top-dose-only effect; inactive = no such curve, though single readings can be large or run the other way; tested in A549 cells; further: nearly all actives have a fitted effect of over 35% in size; inactives centre near -10
Numbers without * were called inactive; i = inactive; u = inconclusive; x = no result given; & = joins results of further samples; [ ] = another dose, or the depositor's remark. On the % scale 0 is the no-effect control and ±100 the full control effect; potency means the concentration at half of the fitted maximal effect. This is a random part of the collection (roughly 0.87% active in at least one column).

SMILES	Vaccinia Venus	Vaccinia mCherry
COc1ccc2cc(C3(C)NC(=O)N(CC(=O)N4CCCCC4)C3=O)ccc2c1 (centres undefined)	11%	0%
CCC(=O)N1C(C(=O)O)CSC1c1ccc(OC)cc1 (centres undefined)	-2%	-1%
COc1cc(C(=O)N2CC(C)OC(C)C2)c([N+](=O)[O-])cc1OC (centres undefined)	-8%	-22%
CCOC(=O)N1CCN(C(=O)CCC2CCCC2)CC1	-7%	i
COc1ccc(/C=C/c2nc3ccccc3c(=O)o2)cc1	-18%	i
O=C(COC(=O)c1cnccn1)c1ccc(Cl)c([N+](=O)[O-])c1	-7%	-9%
COC(=O)C1=C(c2ccc(S(C)(=O)=O)cc2)C[C@@H]2CC[C@H]1N2C(=O)N1CCCC1	-17%	0%
CCOC(=O)COc1cc(N)c(Cl)cc1Cl	-22%	-5%
CCOC(=O)C1CCCN(C(=O)C(CCSC)NC(=O)COc2ccccc2)C1 (centres undefined)	-8%	-19%
CCCn1nc2cc(C(=O)NCC34CC5CC(CC(C5)C3)C4)ccc2c1OCC	u	u
CCN(c1ccccc1)S(=O)(=O)c1ccc(OC)c(NC(=O)CNCCc2ccccc2)c1	-24%	-11%
NC(=O)C1CCCNC1 (centres undefined)	-6%	-19%
Cc1ccc(NC(=O)CC(C)S(=O)(=O)c2ccc3c(c2)NC(=O)CO3)c(Cl)c1 (centres undefined)	-9%&3%	-16%&-11%
Cc1cccc(C)c1-n1nnnc1C1(C)CCC(=O)N1CC1CCCCC1 (centres undefined)	-11%	-14%
COc1cc(Br)cc2cc(C(=O)N3CCN(C(=O)c4ccco4)CC3)c(=O)oc12	0%	-14%
COc1cc(C(=O)N2CCN(C(=O)C3CCCO3)CC2)cc(OC)c1OC (centres undefined)	-9%	i
COc1cc(F)ccc1-c1csc(C(NC(C)=O)c2ccc(F)c(F)c2)n1 (centres undefined)	-15%	i
Cc1cc(C)c(C#N)c(Nc2ccc3c(c2)OCCO3)n1	0%	6%
CC(C)C[C@@H](COCc1ccc(F)cc1)N1CCN(C(=O)c2cccc(C(F)(F)F)c2)CCC1=O	-8%	-16%
OC[C@@H]1CN(Cc2ccccc2)C[C@H](n2cnc3c(N4CCCC4)ncnc32)O1	-24%	i
COc1ccc(CCNC(=O)Cn2cc(C(F)(F)F)cc(Cl)c2=O)cc1	-3%	i
CCCn1c(C)cc(C(=O)COC(=O)c2cc(S(=O)(=O)NCC(C)C)c(Cl)cc2Cl)c1C	7%	x
COC(=O)Cn1cc(C(=O)c2ccccc2F)c2ccccc21	-9%	-14%
CC(=O)N1CCN(c2ccc(S(C)(=O)=O)cc2[N+](=O)[O-])CC1	-3%	i
CC(=O)N1N=C(c2ccco2)CC1c1ccc(C)cc1 (centres undefined)	-7%	-14%
COc1ccc(-n2c(SCc3ccc([N+](=O)[O-])cc3)nnc2-c2ccc(C)cc2)cc1	-22%	-16%
Cn1c(-n2cccc2)c(-c2c(-c3ccccc3)[nH]c3c2c(=O)[nH]c(=O)n3C)c(=O)[nH]c1=O	-9%	-13%
COCCCN1C(=O)C(CC(=O)NC2CCCCC2)CC(C(=O)N(C(C)C)C(C)C)=C1C (centres undefined)	6%	19%
COc1ccc(-n2c(Cn3c(=O)sc4ccccc43)nnc2SCC(=O)N2CCCC2)cc1	-6%	-17%
COc1cc2c(C)nc3onc(-c4ccccc4)c3c2cc1OC	-8%	-13%
CC1CCc2nn(CC(=O)NCc3ccc4c(c3)OCO4)cc2C1 (centres undefined)	-1%	-5%
CC1(C(=O)NCc2ccccc2Br)CCN1Cc1c(F)cccc1F (centres undefined)	-3%	i
CC1(C)Oc2cc3oc(C(=O)O)cc(=O)c3cc2-c2ccccc21	0%	-1%
COc1ccccc1N1CCN(C(=O)c2oc3ccccc3c2NC(=O)C(C)Oc2ccccc2)CC1 (centres undefined)	5%	-2%
COc1ccc(NCC(=O)Nc2c(C)cccc2C)cc1S(=O)(=O)N1CCOCC1	-4%	i
O=C(/C=C/c1ccco1)NCc1ccc2c(c1)OCO2	2%	i
CCOC(=O)c1c(-c2ccccc2)csc1NC(=O)c1cc(-c2ccccc2OC)on1	9%	13%
O=C(O)Cc1c[nH]c2cccc(O)c12	-12%	i
COc1ccc(-n2c(C)cc(C(=O)CSc3nnc(-c4ccoc4C)n3C)c2C)cc1	-12%	-21%
Cc1ccc(NC(=O)CCNS(=O)(=O)c2ccccc2)cc1S(=O)(=O)N1CCOCC1	-25%	-11%
CC1CCc2cc(F)ccc2N1C(=O)CSc1nnc2c3ccccc3n(C)c2n1 (centres undefined)	-8%	-21%
COc1ccc(C(=O)O/N=C/c2ccc(S(=O)(=O)c3ccc(Cl)cc3)nc2)cc1	-14%	-11%
Cc1ccnc(NS(=O)(=O)c2ccc(NC(=O)c3ccc(C)c(C)c3)cc2)n1	8%	7%
COc1ccccc1NC(=O)c1ccc(S(=O)(=O)N2CCCC(C)C2)cc1 (centres undefined)	-8%	-23%
COc1cc(OC)cc(C(=O)Nc2nnc(Cc3ccc(OC)c(OC)c3)s2)c1	-23%	-2%

A draw from above in order of number of heavy atoms, largest number first.
SMILES	Vaccinia Venus	Vaccinia mCherry
CCOC(=O)c1c(-c2ccccc2)csc1NC(=O)c1cc(-c2ccccc2OC)on1	9%	13%
COc1ccc(-n2c(C)cc(C(=O)CSc3nnc(-c4ccoc4C)n3C)c2C)cc1	-12%	-21%
COc1ccc(NCC(=O)Nc2c(C)cccc2C)cc1S(=O)(=O)N1CCOCC1	-4%	i

Continued.
SMILES	Vaccinia Venus	Vaccinia mCherry
N#Cc1c(SCC(N)=O)nc(-c2ccccc2)c2c1CCCC2	-24%	x
CCOc1cc(N2CCOCC2)c(OCC)cc1NC(=O)CSc1n[nH]c(N)n1	-2%	-5%
CCOc1ccc(N(CC(=O)OC)S(=O)(=O)c2ccc(OC)c(OC)c2)cc1	-12%	x
COC(=O)c1sc2ncn(CC(=O)N(C)C3CCCCC3)c(=O)c2c1C	-8%	-13%
CCOC(=O)c1ccccc1NC(=O)c1ccc2c(Cl)c3c(nc2c1)CCC3	12%	17%
O=C(NCCn1ccc2ccccc21)c1ccc(S(=O)(=O)N2CCOCC2)cc1	8%	-12%
O=C(c1cc(-c2ccccc2)nc2ccccc12)N1CCN(c2ccccn2)CC1	-14%	-27%
O=C(CNC(=O)c1cccc(Br)c1)N/N=C/c1ccc[nH]1	-16%	-19%
COC(=O)[C@@]1(Cc2ccc(F)cc2)[C@H]2c3cc(C(=O)N4CCCC4)n(Cc4ccc(C(F)(F)F)nc4)c3C[C@H]2CN1C(=O)c1ccccc1	u	-10%
CN/C(=C/[N+](=O)[O-])NCCSCc1csc(CN(C)C)n1	-14%	-12%
O=C(Nc1ccc2c(c1)OCO2)c1cccc(F)c1	-1%	-9%
Cc1ccc(NC(=S)NCC(O)c2ccccc2)c(C)c1 (centres undefined)	-21%	-4%
O=C1NC(=Nc2ccc(O)cc2)S/C1=C/c1ccco1	u	u
O=C(Nc1ccc2c(c1)OCCO2)C(c1ccnc2ccccc12)n1c(=O)c(-c2ccco2)nc2ccccc21 (centres undefined)	0%	-7%
C[C@@H]1OC(=O)[C@H]2C[C@H]3CCCC[C@@H]3[C@@H](/C=C/[C@H]3CCC[C@H](C)N3C)[C@@H]12	-10%	-4%
Cc1nc(C)c(C(=O)OCC(=O)Nc2ccc(C)c(C)c2)s1	-21%	i
OCCC1CN(CC(c2ccccc2)c2ccccc2)CCN1C1CCCC1 (centres undefined)	-16%	-20%
O=C(COC(=O)c1cc(Br)ccc1O)NC1CCCCCC1	-8%	i
Cc1cccc(N2CCN(Cc3ccoc3)CC2)c1C	-8%	-8%
C[C@H](NC(=O)c1ccco1)C(=O)Nc1cccc([N+](=O)[O-])c1	-2%	i
Cc1cc(C)nc(NNC2=CC(=[N+]3CCCC3)CCC2)n1	0%	i
COc1ccc(S(=O)(=O)N2CCN(CC(=O)NC3CC3)CC2)cc1	-8%	-12%
O=C(Nc1ccccc1C(F)(F)F)NC1(C(=O)N2CCOCC2)CCCCC1	1%	-20%
CCN(CC)C(=O)C1CCCc2c1[nH]c1ccc(Cl)cc21 (centres undefined)	5%	9%
CCc1ccccc1OCCCCN1CCCCC1	-11%	-20%
O=C(CCc1nc2sc3c(c2c(=O)[nH]1)CCCC3)NCC(=O)Nc1ccccc1Br	-11%	-6%
Cc1ccc(NC(C(=O)c2ccccc2)c2ccccc2)cc1 (centres undefined)	-7%	u
Nc1[nH]c(N=NC(=O)c2ccccc2O)c2ccccc12	u	u
CC(=O)NCCc1nc2cc(NC(=O)COc3ccc(C)cc3)ccc2n1C	-12%	-5%
Cc1cc(C)n(-c2cc(-n3nc(C)cc3C)ncn2)n1	-8%	-11%
Cc1ccc(OCCNC(=O)c2cccc(Oc3ccc(C(F)(F)F)cc3[N+](=O)[O-])c2)cc1	u	u
Cc1cccc(CN(Nc2ccccc2)c2ccccc2)n1	-16%	-9%
Cc1ccc(C(=O)Nc2ccc(Cl)c(-c3nc4ncccc4o3)c2)c(C)c1	-8%	-8%
COc1ccccc1CC(=O)Nc1ccc(S(=O)(=O)N2CCCC2)cc1	-9%	-9%
Cc1ccc(CNC(=O)c2ccc3c(c2)nc2n3CCCC2)cc1	-4%[7.34 µM]	-8%[7.34 µM]
CCC(=O)N1CCc2cc(Br)cc(S(=O)(=O)NCCN3CCCC3)c21	-10%	i
O=C(Nc1cccc(Cl)c1Cl)c1csc([C@@H]2O[C@H](CO)[C@H](O)[C@H](O)[C@H]2O)n1	6%	16%
Cc1ccc(NC(=O)Cn2nc(N3CCN(c4ccccc4)CC3)ccc2=O)cc1F	-10%	-20%
COc1ccc(CC(=O)c2cc(OC)c(OC)cc2CC(=O)O)cc1OC	-3%	x
COc1ccccc1NC(=O)NC(=O)N(C(C)C)S(C)(=O)=O	-15%	i
CCOC(=O)c1[nH]c(C)c(C(=O)NCCc2ccccc2)c1C	-10%	5%
COc1ccccc1NC(=O)COC(=O)C1C2CC3OC(=O)C1C3C2 (centres undefined)	-3%	-14%
CCOC(=O)Nc1ccc(C(=O)Oc2ccccc2)c(O)c1	-3%	i
O=C(CCn1c(=O)c2ccccc2n(Cc2cccc(Cl)c2)c1=O)NCCc1ccccc1	-7%	-13%
CC(C)(C)c1ccc(C(=O)Nc2cnccn2)cc1	-9%	-15%

Another view of three compounds above.
| SMILES | Vaccinia Venus | Vaccinia mCherry |
| --- | --- | --- |
| CCC(=O)N1CCc2cc(Br)cc(S(=O)(=O)NCCN3CCCC3)c21 | -10% | i |
| Cc1cccc(CN(Nc2ccccc2)c2ccccc2)n1 | -16% | -9% |
| CCOC(=O)c1[nH]c(C)c(C(=O)NCCc2ccccc2)c1C | -10% | 5% |

(further entries)
SMILES	Vaccinia Venus	Vaccinia mCherry
O=C(O)C1Nc2c(C(=O)N3CCOCC3)cccc2C2C=CCC12 (centres undefined)	31%[activator]	32%[activator]
COc1ccc(F)cc1S(=O)(=O)NCCc1csc2nc(-c3cccc(C)c3)nn12	-15%	-9%
Cc1cccc(C(=O)NCC(=O)NCC(c2cccs2)N2CCOCC2)c1 (centres undefined)	-13%	i
O=C(O)C1CC1C(=O)Nc1cc(F)ccc1F (centres undefined)	23%	-13%
COc1ccccc1NC(=O)CSc1nc2c(oc3ccccc32)c(=O)n1-c1ccccc1F	-3%	-14%
CN(C)c1ccc(/C=C/c2cc[n+](C)c3ccccc23)cc1	i	174%[activator]
CCCCCN(C(=O)CCC(=O)OCc1ccccc1F)c1c(N)n(CCCC)c(=O)[nH]c1=O	-18%	-2%
Oc1ccc2c(c1)c1c3n2CCNC3CCC1 (centres undefined)	-10%	-18%
Cc1ccc(N2C(=O)CS(=O)C(c3ccccc3)C2=O)cc1C (centres undefined)	-10%	-4%
Cn1c(N)c(C(C[N+](=O)[O-])c2c(F)cccc2Cl)c(=O)n(C)c1=O (centres undefined)	u	-15%
CN(Cc1c(C(=O)N/N=C/c2c(F)cccc2Cl)nnn1-c1nonc1N)c1ccccc1	-15%[7.34 µM]	-4%[7.34 µM]
OCC(Cc1ccccc1)Nc1c2ccccc2nc2ccccc12 (centres undefined)	u	-19%
C=C(C)CC1N(c2cccc(OC)c2)C(=O)C2C(C(=O)O)C3C=CC21O3 (centres undefined)	-3%	5%
O=C(C1=NOC2(C1)C(=O)Nc1ccccc12)N1CCOCC1 (centres undefined)	1%	-8%
Cn1nc(C(=O)OCC(=O)NCc2ccc(Cl)cc2Cl)c2ccccc2c1=O	-25%	-2%

Single records (already shown). Values in the order: Vaccinia Venus	Vaccinia mCherry
Listed for `Cn1c(N)c(C(C[N+](=O)[O-])c2c(F)cccc2Cl)c(=O)n(C)c1=O` (centres undefined) = u	-15%
Listed for `COc1ccccc1NC(=O)CSc1nc2c(oc3ccccc32)c(=O)n1-c1ccccc1F` = -3%	-14%
Listed for `Cn1nc(C(=O)OCC(=O)NCc2ccc(Cl)cc2Cl)c2ccccc2c1=O` = -25%	-2%
Listed for `Cc1ccc(N2C(=O)CS(=O)C(c3ccccc3)C2=O)cc1C` (centres undefined) = -10%	-4%
Listed for `Cc1cccc(C(=O)NCC(=O)NCC(c2cccs2)N2CCOCC2)c1` (centres undefined) = -13%	i

Further results follow.
SMILES	Vaccinia Venus	Vaccinia mCherry
Cc1cccc(NC(=O)CNC(=O)COC(=O)C2CC2C)c1C (centres undefined)	-5%	-17%
CN(c1ccccc1)S(=O)(=O)c1cc(C(=O)OCC(=O)N2CCN(C(=O)c3ccco3)CC2)ccc1Cl	-23%	-14%
COc1cc(CC(=O)O)ccc1O	-11%&-14%	-14%
CCCCCn1cc(C(=O)C(=O)N2CCOCC2)c2ccccc21	-5%	i
CCCCN(C)CCNC(=O)CN1C(=O)CSc2ccc(S(=O)(=O)N3CCOCC3)cc21	-6%	-10%

Compound activity: PubChem BioAssay, National Center for Advancing Translational Sciences (NCATS)
